Source: PubChem (National Center for Advancing Translational Sciences (NCATS))
GLA inh pH 4.5 – qHTS Assay for Inhibitors of Human alpha-Galactosidase at pH 4.5; Alpha-galactosidase A (Homo sapiens), P06280; purified enzyme, 4-MU-alpha-Gal fluorescence, pH 4.5; activity change, negative = inhibition, % at 105 µM; 230,000 tested, under 10 active; inconclusive = small, poorly fitted or top-dose-only inhibition, or a rising curve; inactive = flat fitted curve, though single readings scatter; no compound was filed as active;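 also: 0% = full activity with enzyme and -100% = basal without enzyme; dose as in the result columns while the protocol names 77 µM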
Rango dissoc inh – qHTS Assay for Inhibitors of RanGTP induced Rango (Ran-regulated importin-beta cargo) - Importin beta complex dissociation; Biochemical FRET Rango-importin beta, RanGTP-induced dissociation; Potency, µM (doses to about 46.1 µM), inactives show at the highest dose activity change, negative = inhibition; hit rate 0.071% among 340,000; active means falling FRET ratio curve, often poorly fitted, with flat reads before Ran was added; inconclusive means other falling curves, or compound fluorescence or quenching; inactive means flat or rising ratio curve;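 also: potency is read from the fitted curve at half-maximal effect; % of control where 0% means no effect; nearly all actives have a fitted effect of over 45% in size; -100% = wells without RanGTP and RCC1; the record marks most hits as doubtful in a second field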
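Recombinant Rango FRET biosensor (EYFP–snurportin 1 IBB–cerulean CFP10) at 0.1 uM premixed with 0.25 uM importin beta in PBS, 1 mM DTT, 0.02% Tween-20, 0.1% BSA. Compound added 5 min; RanGTP-RCC1 (0.6 uM Ran, 2 mM GTP, 0.2 uM RCC1) then triggers release, read at 45 min.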
Rango complex inh – qHTS Assay for Inhibitors of Rango (Ran-regulated importin-beta cargo) - Importin beta complex formation; Importin subunit beta-1 (Homo sapiens), Q14974; Rango CFP/YFP FRET sensor + importin beta, 45 min; Potency, µM (top dose mostly 92.2 µM), inactives show top-dose inhibition of complex formation; hit rate 0.031% among 340,000; active = rising FRET ratio curve, often small or poorly fitted; inconclusive = mostly compound fluorescence or quenching in the first reads; inactive = flat curves in all reads;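 also: potency is read from the fitted curve at half-maximal effect; 0% = DMSO wells and 100% = buffer wells lacking importin beta; nearly all actives have a fitted effect of over 15% in size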
Target sequence (Q14974 whole entry, looked up): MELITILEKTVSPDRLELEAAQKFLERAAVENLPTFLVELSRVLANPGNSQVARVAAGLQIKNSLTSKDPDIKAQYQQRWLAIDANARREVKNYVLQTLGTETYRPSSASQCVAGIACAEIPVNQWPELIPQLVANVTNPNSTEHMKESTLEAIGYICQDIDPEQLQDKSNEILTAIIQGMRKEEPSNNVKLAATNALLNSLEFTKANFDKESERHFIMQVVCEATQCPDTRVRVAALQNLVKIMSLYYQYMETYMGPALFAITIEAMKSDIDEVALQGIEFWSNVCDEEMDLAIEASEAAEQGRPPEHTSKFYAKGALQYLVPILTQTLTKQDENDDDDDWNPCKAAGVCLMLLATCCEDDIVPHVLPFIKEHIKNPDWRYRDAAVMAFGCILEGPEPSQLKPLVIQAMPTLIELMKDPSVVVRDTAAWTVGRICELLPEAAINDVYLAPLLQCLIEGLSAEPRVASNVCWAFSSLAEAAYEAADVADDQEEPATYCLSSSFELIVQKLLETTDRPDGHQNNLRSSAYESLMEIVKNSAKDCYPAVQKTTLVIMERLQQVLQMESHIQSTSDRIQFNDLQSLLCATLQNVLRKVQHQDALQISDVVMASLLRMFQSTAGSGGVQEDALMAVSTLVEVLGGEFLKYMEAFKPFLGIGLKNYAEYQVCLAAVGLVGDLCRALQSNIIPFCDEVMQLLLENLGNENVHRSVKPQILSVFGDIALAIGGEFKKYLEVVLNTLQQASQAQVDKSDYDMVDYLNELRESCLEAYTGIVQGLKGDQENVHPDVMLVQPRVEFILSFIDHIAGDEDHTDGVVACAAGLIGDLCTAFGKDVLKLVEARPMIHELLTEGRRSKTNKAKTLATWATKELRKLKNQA
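FRET biosensor (snurportin 1 IBB flanked by EYFP and cerulean), 50 nM, with compound 5 min, then 0.125 microM importin beta in PBS, 1 mM DTT, 0.02% Tween-20, 0.1% BSA. CFP/YFP ratio read after 45 min at room temperature; pre-read flags interference.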
miR-21 reporter – qHTS Assay for Modulators of miRNAs and/orActivators of miR-21; HeLa miR-21 FLuc reporter, luciferase, 48 h; Potency, µM (doses to about 38.3 µM), for the others: at the highest dose reporter change, positive = more light; 340,000 tested, under 10 active; AID 2288, 2010; active = well fitted rising curve with a large enough effect; inconclusive = small, poorly fitted or top-dose-only effect; inactive = no such curve, though single readings can be large or run the other way;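 also: % of control where 0% means no effect; miR-21 action dims this reporter so a rising signal means less miR-21 action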
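Compounds were titrated across several concentrations (up to approximately 40 uM) and incubated 48 hours with HeLa miR-21-FLuc reporter cells (miR-21 target sequence downstream of FLuc, endogenous miR-21). Readout was firefly luciferase luminescence after lytic detection reagent.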
* hit, by the source's call; ? = inconclusive; nt = no result given; & = joins results of further samples; [ ] = dose if it differs, or a comment. The list is partial; rates above refer to the full screens.

structure | GLA inh pH 4.5 | Rango dissoc inh | Rango complex inh | miR-21 reporter
CC[C@]12c3[nH]c4ccc(Cl)cc4c3CCN1C(=O)[C@@H](CC(=O)NCCCOC)C[C@@H]2C(=O)N1CCN(C(=O)C2CC2)CC1 | nt | 8% | -0.6% | nt
CN(C(=O)CSc1cn(CC(=O)N2CCOCC2)c2ccccc12)c1ccccc1 | nt | 26% | -1.4% | -7%&-12%
COc1cc(C(=O)N2c3ccccc3CC2C)cc(OC)c1OC (stereo unspecified) | 6 | -11% | 1.3% | 2%
COc1ccc(C(O)Cn2cc([N+](=O)[O-])nc2C)cc1 (stereo unspecified) | 2 | -27% | -2.8% | 0%
O=C(Cn1ccc([N+](=O)[O-])n1)Nc1nc2ccccc2s1 | 3 | 4% | 0.9% | -15%
CCOc1ccc(CCNC(=O)c2ccc(N3CCCC3=O)cc2)cc1OCC | 14 | 0% | 2.7% | -9%
Oc1[nH]c2ccccc2c1C1=NCCCC1 | 2 | 7% | 0.8% | -14%
Cc1c(NC(=O)COC(=O)c2cc(-c3ccc(-c4ccccc4)cc3)nc3ccccc23)c(=O)n(-c2ccccc2)n1C | 2 | -26% | -1.0% | 22%
CCOC(=O)N1CCC(NCCNC(=O)c2ccco2)CC1 | 2 | -11% | -1.6% | -3%
C[C@H](CO)N1C[C@H](C)[C@@H](CN(C)S(=O)(=O)c2ccc(F)cc2)Oc2ccc(NC(=O)Nc3ccccc3)cc2C1=O | nt | 0% | -4.1% | nt
CC(=O)c1ccc(NC(=O)c2cc(Cl)nc3ccccc23)cc1 | 3 | 3% | 1.5% | -10%
Fc1cc(F)cc(NC(=S)N2CCC(c3ccccc3)C2)c1 (stereo unspecified) | -2[21.1 µM] | 3% | -0.3% | -52%
COc1cc(C(=O)NCC(=O)OC(C)C(=O)Nc2ncc(Cl)cc2Cl)cc(OC)c1OC (stereo unspecified) | 0 | 13% | 2.1% | 3%
COc1ccc(C)cc1NC(=O)CSc1nnc(COc2ccc(Cl)cc2)n1Cc1ccco1 | 1 | -1% | 7.1% | 27%
CCOC(=O)c1c(C)[nH]c(C(=O)N/N=C\c2ccccc2Cl)c1C | 1 | -7% | 2.5% | 5%
COc1ccc(OCC(=O)N/N=C/C(C)=C/c2ccco2)c(Br)c1 | nt | 0% | -1.8% | -12%
COc1ccccc1NS(=O)(=O)c1ccc(C(=O)N2CCCCCC2)cc1 | nt | 15% | 0.4% | nt
O=S(=O)(Nc1cc(Cl)ccc1N1CCCCC1)c1cccs1 | -2 | 4% | 0.2% | -7%
O=C(O)c1ccccc1C(=O)N1N=C(c2ccccc2)CC1c1ccccc1O (stereo unspecified) | nt | 16% | -1.2% | -52%
CC1CCN(C(=O)CN(c2ccc3c(c2)OCCO3)S(=O)(=O)c2ccccc2)CC1 | nt | -16% | -6.7% | -17%
COc1ccc(N2CCN(S(=O)(=O)c3ccc(-c4cc(C)no4)s3)CC2)cc1 | nt | 1% | 0.3% | -1%
O=c1[nH]cnc2c1ncn2[C@@H]1O[C@H](CO)[C@@H](O)[C@H]1O | -2 | -15% | -0.2% | 2%
COC(=O)c1cnn2c(C(F)(F)F)cc(-c3ccccc3)nc12 | -2 | 1% | -1.0% | -2%
Cc1nonc1OCC(C)(COc1nonc1C)NC(=O)c1ccc(Cl)cc1 | -6 | 8% | -0.1% | -1%
O=C(O)C1CCN(c2ccc(S(=O)(=O)N3CCOCC3)cc2[N+](=O)[O-])CC1 | -7 | -4% | 0.8% | 0%
COc1ccc(C(=O)n2ccc(C)n2)cc1Br | -7 | nt | nt | -5%
CCN(CC)CCCNc1ncnc2ccccc12 | 8 | 22% | 2.1% | -7%
COC(=O)c1ccc(COC(=O)C23CC4CC(CC(O)(C4)C2)C3)o1 | 5 | -12% | -4.4% | -10%
COC(=O)c1cc(Cl)cc2c(C)c(C3(O)CCCCC3)[nH]c12 | nt | 1% | -2.9% | 7%
COc1ccc(C(=O)Cc2ccc(OC)c(OC)c2)c(OC)c1 | 6 | -14% | -3.9% | -5%
CO/N=C/C(C#N)=C/c1ccc(OC)c(OC)c1 | -4 | 3% | -1.2% | -26%
CCCCCCc1cc2cc(C(=O)NC)c(=N)oc2cc1O | 3 | ? | ? | -4%
CN1C(=O)NC(c2ccccc2Cl)C2=C1CC(C)(C)CC2=O (stereo unspecified) | nt | -14% | -3.0% | 5%
O=C(NCc1cccs1)C1CC(c2ccc(Cl)c(Cl)c2)=NO1 (stereo unspecified) | 7 | 1% | -0.6% | -11%
CCOC(=O)CNC(=O)CNC(=O)Cn1ccc2ccccc2c1=O | -4 | -6% | -0.8% | 1%
COC(=O)c1cc(=O)n2c(sc3ccccc32)c1C#N | 27 | ? | ? | -1%
O=C(CCN1C(=O)[C@@H]2Cc3ccccc3CN2C1=O)NCc1ccccc1 | nt | ? | ? | -1%
Cc1ccc(S(=O)(=O)N2CCC(=O)N(CCOCc3ccccc3)CC2)cc1 | 2 | 9% | 0.8% | -5%
CCOc1ccc(NC(=S)Nc2ccc3nsnc3c2)cc1 | -8 | ? | ? | -23%
COc1ccc(-c2nc3cc(NC(=O)Cc4ccc(OC)c(OC)c4)ccc3o2)cc1 | 0 | 0% | 0.6% | 1%
COC(=O)c1cc(CNC(=O)CCCSc2ccccc2)ccc1OC | nt | 2% | 0.5% | -10%
CSc1ncccc1C(=O)NCCc1ccccc1F | nt | -1% | 0.6% | -12%
COc1ccc(NC(=O)COC(=O)C23CC4CC(CC(NC(C)=O)(C4)C2)C3)cc1S(=O)(=O)N1CCOCC1 | nt | 9% | -1.2% | nt
Cc1ccsc1C=C1C(=O)c2ccccc2C1=O | 4 | 10% | -0.2% | -9%
Cc1cc(C(=O)OC(C)C(=O)Nc2cccc(Cl)c2)on1 (stereo unspecified) | nt | 8% | 0.3% | nt
CCCCN(C)C(=O)Cn1nc(Cc2ccncc2)c2ccccc2c1=O | nt | -6% | -1.9% | 0%
Cc1ccc(C)c(C(=O)N2CCC(n3nccc3NC(=O)C3CC3)CC2)c1 | nt | -19% | -1.3% | 0%
Cc1ccc(Oc2nnc(-c3ccc(C)cc3)c3ccccc23)cc1 | 10 | -3% | ? | -14%
Cc1ccn2cc(CCNS(=O)(=O)c3ccc4c(c3)OCCO4)nc2c1 | 4 | 11% | -0.8% | -5%
Cc1ccc(C(c2nnnn2C2CCCCC2)N2CCN3CCCC3C2)cc1 (stereo unspecified) | 5 | 9% | 6.1% | -6%
O=[N+]([O-])c1ccc(N2CCOCC2)cc1O | -11 | 2% | 0.3% | -7%
Cc1ccc(S(=O)(=O)N(C)Cc2ccc(-c3nnc4n3CCC4)cc2)cc1 | -1 | -8% | 1.3% | -4%
COC(=O)c1[nH]c2ccccc2c1NC(=O)CN1CCN(Cc2ccc3c(c2)OCO3)CC1 | 10 | -9% | 1.3% | 1%
OC(CSc1ccccc1)CN1CCN(c2ccc(Cl)cc2)CC1 (stereo unspecified) | nt | -10% | 0.9% | nt
CC(C)(C)OC(=O)N(Cc1ccccc1)Cc1cccc(OCc2cccc(NC(=O)c3ccccc3)c2)c1 | nt | 0% | -2.1% | nt
COc1ccc(OC)c2[nH]c(C(=O)N3CCC(C(=O)O)CC3)cc12 | nt | -10% | -1.6% | -3%
O=C(CN1CCc2cc3c(cc2C1)OCCCO3)Nc1cccc(Br)c1 | nt | -4% | ? | -7%
COc1ccccc1CNC(=O)CSc1ccc(Br)cc1 | -2 | -7% | -2.8% | -9%
CCOc1cc(CNc2ccc(S(N)(=O)=O)cc2)ccc1OCC(=O)NC(C)(C)C | -4 | 2% | 2.7% | 6%
Cc1nc2scc(-c3ccccc3)c2c(=O)n1/N=C/c1ccco1 | 4 | -13% | -2.0% | 0%

Next section.
structure | GLA inh pH 4.5 | Rango dissoc inh | Rango complex inh | miR-21 reporter
CC(=O)Nc1c(Br)cc2c(c1Br)Cc1cc([N+](=O)[O-])ccc1-2 | nt | 10% | 0.3% | nt
CC(CC(=O)Nc1ncc([N+](=O)[O-])s1)c1ccccc1 (stereo unspecified) | -6 | -11% | 0.1% | 15%
Cc1ccc(NC(=O)CSCC(=O)N(C)CC(=O)Nc2cccc(F)c2)cc1 | nt | -1% | 1.0% | nt
CCCCn1c(N)c(N(CCOC)C(=O)c2cc(S(=O)(=O)N3CCCCC3)ccc2Cl)c(=O)[nH]c1=O | nt | 0% | -5.0% | -1%
NC(=O)C1CCN(CC(O)COCc2ccccc2Cl)CC1 (stereo unspecified) | nt | -5% | 2.5% | 2%
CC(C)(C)NCC(O)COc1ccccc1C1CCCC1 (stereo unspecified) | nt | 3% | -2.9% | nt
CCCCc1ccc(NC2=NCC(=O)N2CCc2ccccc2)cc1 | -17 | 2% | -2.4% | 1%
N#Cc1cccc(Nc2c3c(nc4ccccc24)CCCC3)c1 | -3 | 3% | -4.7% | 12%
Cc1ccccc1NC(=O)OCc1cn(-c2ccc(Cl)cc2)nn1 | 3 | -11% | -4.3% | -4%
O=C(Oc1ccc(Br)cc1C(=O)/C=C/c1ccccc1F)c1ccco1 | nt | ? | -8.8% | nt
CC(C)CNC(=S)N1CCN(Cc2ccc3c(c2)OCO3)CC1 | -9 | -10% | -1.9% | -6%
CC[C@]12c3[nH]c4ccccc4c3CCN1C(=O)C(CC(=O)NCCCOC)C[C@@H]2C(=O)N1CCN(C(=O)c2ccco2)CC1 (stereo partly specified) | nt | -11% | -1.3% | nt
CCN1C(=O)/C(=C/C=C2/SCCN2C)SC1=S | -21 | -18% | 9.1% | -66%
CCOc1ccc(NC(=O)CSc2nnc(Cc3cccn3C)n2-c2ccc(OC)cc2)cc1 | -11 | 1% | 1.8% | 5%
CCOC(=O)C1CSC(CC(=O)Nc2ccc(Cl)c(Cl)c2)C(=O)N1 (stereo unspecified) | -1 | 2% | 1.0% | 0%

Whole records, looked up by structure. Screens in order: GLA inh pH 4.5, Rango dissoc inh, Rango complex inh, miR-21 reporter
Profile of Cc1ccc(C(c2nnnn2C2CCCCC2)N2CCN3CCCC3C2)cc1 (stereo unspecified) : 5, 9%, 6.1%, -6%
Profile of CSc1ncccc1C(=O)NCCc1ccccc1F : nt, -1%, 0.6%, -12%

Other records follow:
structure | GLA inh pH 4.5 | Rango dissoc inh | Rango complex inh | miR-21 reporter
CCc1ccc(Nc2n[n+](-c3ccccc3)c(-c3cccc(C)c3)s2)cc1 | nt | 15% | -0.9% | nt
COc1ccc(OC)c(C(O)c2coc3ccc(O)c(CN(C)C)c23)c1 (stereo unspecified) | -7 | 2% | -0.6% | -5%
COc1ccccc1C(=O)NC(CCSC)C(=O)NCc1ccncc1 (stereo unspecified) | nt | -12% | -3.3% | nt
Cc1ncsc1C(=O)NCc1ccc(N2CCCC2=O)cc1 | 3 | 1% | -0.9% | 5%
O=C(/C=C/c1ccco1)Nc1cc(Cl)ccc1C(=O)O | -14 | -11% | -3.1% | -22%
Cc1cccc(NC(=O)CSC2=NN3CCCC(=O)N=C3S2)c1C | 3 | 18% | -1.6% | 9%
CCOC(=O)C1=C(C)N=C2SCCC(=O)N2C1c1cccs1 (stereo unspecified) | -12 | 7% | 0.9% | 5%
O=C(NCc1cccnc1)C1c2ccccc2C(=O)N1C1CCCC1 (stereo unspecified) | -5 | ? | -6.3% | -2%
CCSc1ncccc1C(=O)N[C@@H](CCSC)C(=O)OC | -4 | -8% | 0.8% | -1%
NC(=O)CN(c1ccc(Cl)cc1)S(=O)(=O)c1ccccc1 | -9 | -4% | -1.6% | -4%
CC(=O)CC1(OC(C)=O)C(=O)N(C)c2ccccc21 (stereo unspecified) | -1 | 5% | 0.7% | 20%
O=C1CCCc2c1[nH]c1ccccc21 | 3 | 0% | ? | -9%
Clc1ccccc1-c1nnc2sc(-c3cccs3)nn12 | 0 | 33% | 4.1% | -16%
COc1ccc(NC(C#N)c2ccc(OC)cc2)cc1 (stereo unspecified) | 8 | -16% | -0.2% | -11%
O=C(O)c1ccc(CSc2nnc(-c3ccco3)n2-c2ccccc2)cc1 | 11 | -11% | -1.8% | -2%
